# GALR2 agonist = GALR2 (human) receptor agonism; AID 803; O43603; activation, %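 (tested at 5 µM)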; 0.48% of 140,000 active; GALR2-expressing cells, agonist activation read-out;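 active = above mean plus 3 SD of all compounds, about 5% in these data, not always enough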;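 also: 0% = vehicle buffer wells and 100% = reference agonist at full effect; tested in CHO reporter cells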
# Target sequence (O43603 whole entry, looked up): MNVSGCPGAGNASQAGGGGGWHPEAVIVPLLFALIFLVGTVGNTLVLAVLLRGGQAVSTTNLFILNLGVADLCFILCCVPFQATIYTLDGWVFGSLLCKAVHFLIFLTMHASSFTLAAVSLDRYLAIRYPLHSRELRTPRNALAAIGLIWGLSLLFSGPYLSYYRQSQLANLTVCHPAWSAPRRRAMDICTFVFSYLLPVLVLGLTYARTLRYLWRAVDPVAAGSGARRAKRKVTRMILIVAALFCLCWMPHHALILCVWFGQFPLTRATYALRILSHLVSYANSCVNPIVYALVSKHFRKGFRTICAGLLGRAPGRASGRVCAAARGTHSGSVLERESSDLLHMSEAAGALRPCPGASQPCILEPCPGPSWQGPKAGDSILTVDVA
# HSV replic up = increases HSV replication in cells; HSV replication augmentation in cells, fold increase; maximum fold increase; 0.005% of 220,000 active; AID 1956;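 active = peak rise of 1.5-fold or more in the series; inconclusive = self-fluorescent or not available for retest; tested in PC3 cells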;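 also: first round at 10 µM; read as green reporter fluorescence; hits show the peak of a series up to 25 µM; 1 = signal of infected wells without compound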
# PKD1 kinase inh = PKD1 (human) kinase inhibition | AID 797 | 0.056% of 200,000 active | inhibition, %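 (about 10 µM by stock and volumes)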 | PKD1 kinase fluorescence polarization assay;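 active = inhibition of 50% or more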;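 also: controls were vehicle for no effect and a reference inhibitor for full effect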
# RGS16-Gao = modulates binding between human RGS16 and Galphao; O15492+P09471; binding response (% of control), % at 10 µM; bead-based flow cytometry RGS16-Galphao binding, fluorescence; actives lie on both sides; 0.38% of 220,000 active; AID 1441;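 active = below 25% or above 175%, edge rows of some plates excepted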;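 also: Galphao activated by GDP with aluminum fluoride before binding; 100% = wells without compound and 0% = beads without RGS; some results beyond the cut were filed as inactive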
# Target sequence (O15492 whole entry, looked up): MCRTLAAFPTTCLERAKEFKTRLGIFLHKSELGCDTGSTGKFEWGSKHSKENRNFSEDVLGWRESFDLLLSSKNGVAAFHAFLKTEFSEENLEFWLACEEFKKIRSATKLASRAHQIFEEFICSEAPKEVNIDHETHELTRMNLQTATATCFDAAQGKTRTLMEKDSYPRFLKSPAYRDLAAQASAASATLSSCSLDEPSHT
# Target sequence (P09471 whole entry, looked up): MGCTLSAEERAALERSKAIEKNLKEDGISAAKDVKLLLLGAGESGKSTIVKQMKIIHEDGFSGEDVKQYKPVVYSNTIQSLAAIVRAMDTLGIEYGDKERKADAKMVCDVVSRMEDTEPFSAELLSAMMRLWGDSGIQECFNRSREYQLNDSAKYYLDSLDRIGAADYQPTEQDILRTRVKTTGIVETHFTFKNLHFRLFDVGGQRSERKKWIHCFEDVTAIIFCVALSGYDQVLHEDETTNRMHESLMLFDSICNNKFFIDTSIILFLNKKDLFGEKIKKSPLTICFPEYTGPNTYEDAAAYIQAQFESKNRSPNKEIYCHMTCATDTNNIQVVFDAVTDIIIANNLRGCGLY
# Insulin prom inh = TRM-6 insulin promoter activity inhibition | TRM-6 cells (human fetal islet line), insulin promoter-eGFP reporter, imaging; reporter expression induced with tamoxifen | inhibition, % at 2 µM | 0.9% of 130,000 active | AID 1273;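 active = inhibition above the mean plus 3 SD, with well images judged a real hit on visual review, cut at about 60% in these data, passing the limit was not always enough; inconclusive = inhibition over the cutoff but images rejected on review; inactive = inhibition not above the cutoff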
# Insulin prom inh cell count = further read-out of Insulin prom inh, marked with its call; normalized cell count, %; measured here: cell count, toxicity; reference of the scale not given here;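 cells exposed to compound for 48 h; stained nuclei by imaging scaled within each plate; lower means fewer cells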
# HSV replic up primary fold = further read-out of HSV replic up, marked with its call; fold increase; compound at 10 µM; measured here: primary screen fold increase 10 uM; tested in PC3 cells;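 GFP signal in the first replicate; 1 = infected wells without compound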
# * marks the source's active call; other numbers are inactive results; i = inactive; ? = inconclusive; nt = no result given.
SMILES,GALR2 agonist,HSV replic up,HSV replic up primary fold,PKD1 kinase inh,RGS16-Gao,Insulin prom inh,Insulin prom inh cell count
O=C(COc1ccc(Br)cc1CNCCc1ccccc1)NCc1ccccc1,nt,i,0.71,1,99,-36,76
O=C(CS(=O)(=O)c1ccccc1)Nc1ccc(Br)cn1,-1.4,i,1.1,-1,117,nt,nt
COc1ccc(/C=C2\CCc3ccccc3C2=O)cc1Cn1nc(C)c(Br)c1C,-1.6,nt,nt,-4,nt,52,62
CC(OC(=O)c1nsc(Cl)c1Cl)C(=O)NCc1ccc2c(c1)OCO2 (configuration not stated),-3.4,i,0.89,10,103,-57,90
CC(C)N(C(=O)CSc1nc2ccccc2n1Cc1ccccc1F)C(C)C,-3.5,i,1,-3,96,-221,55
COc1cccc(N2CCN(CC(=O)C34CC5CC(CC(C5)C3)C4)CC2)c1,-1.1,i,1,-6,94,32,75
NS(=O)(=O)c1ccc(CCNC(=O)CC(NC(=O)c2ccccc2Cl)c2ccccc2)cc1 (configuration not stated),nt,i,1.1,nt,103,nt,nt
COc1cc(CNCc2ccco2)ccc1OCc1ccccc1,-1.0,i,0.9,-8,105,nt,nt
CC1=Nc2ccccc2N=C(NC(=O)CSC(=S)N2CCN(C)CC2)C1c1ccccc1 (configuration not stated),nt,i,1,nt,94,nt,nt
CC(=O)N(c1ccccc1)c1ccc([N+](=O)[O-])cc1[N+](=O)[O-],-0.1,i,1,-10,97,22,79
O=C(NC1=NCCS1)c1cccs1,-0.6,i,0.79,0,106,nt,nt
O=C(O)c1ccc(N2C(=O)CC(N3CCC(c4nc5ccccc5[nH]4)CC3)C2=O)cc1 (configuration not stated),nt,i,0.94,2,100,nt,nt
CC(=O)C1=C(O)CCC1=N,-1.7,i,0.99,-5,100,3,111
COc1ccc(/C=C(/NC(=O)c2ccco2)C(=O)N2CCc3ccccc32)cc1OC,nt,i,1,nt,96,nt,nt
O=C(NNc1ccnc2cc(Cl)ccc12)C1CCCCC1,nt,i,0.92,1,94,nt,nt
Cc1ccc(S(=O)(=O)N(CCO)c2cc3c(s2)CCCC3)cc1,-0.7,i,0.88,-4,108,-9,143
CC1=CN2C(=N)/C(=C\c3cn(CCCOc4ccccc4)c4ccccc34)C(=O)N=C2S1,0.6,i,0.81,4,108,nt,nt
CNC(=O)c1sc(-c2ccccn2)nc1C,nt,i,0.94,4,127,-8,58
COC(=O)Cn1c2ccc(F)cc2c2nc(C)sc21,-1.6,i,0.99,-5,86,nt,nt
COc1ccc(CCNC(=O)c2ccc(-c3ccc([N+](=O)[O-])cc3Cl)o2)cc1OC,-0.5,i,0.9,8,108,nt,nt
O=C(CN1CCC(NC(=O)c2ccccc2)CC1)NCc1ccccc1F,-1.2,i,0.54,1,98,18,46
COc1ccc(NC(=O)CSc2nc3ccc(OC)cc3[nH]2)cc1,nt,i,0.86,nt,108,nt,nt
Cc1[nH]nc2c1C1(CCOC1C)C(C#N)=C(N)O2 (configuration not stated),-1.8,i,0.93,0,106,-129,31
Cc1c(NC(=O)c2ccc(COc3ccc4ccccc4c3)o2)c(=O)n(-c2ccccc2)n1C,-4.8,i,0.8,-6,103,20,80
COc1ccccc1NC(=O)Cn1nnc(-c2ccccc2NC(=O)c2ccco2)n1,-0.5,i,0.79,-1,nt,3,153
FC(F)(F)c1ccccc1CN1CCN(C2CCCCCC2)CC1,-0.5,i,0.91,1,104,0,113
CCOc1cccc(-c2nn3c(-c4cc(C)[nH]n4)nnc3s2)c1,-0.1,i,0.85,-15,102,nt,nt
O=C(O)CCC(=O)N1CCN(c2ccccn2)CC1,-0.2,nt,nt,-10,102,-25,89
CC(C)c1nnc(NC(=O)CCC(=O)NCc2ccc3c(c2)OCO3)s1,-1.7,i,1.1,2,101,43,87
COc1ccc(N(C(=O)C(C)C)S(=O)(=O)c2cccc3cccnc23)cc1,-1.4,i,0.91,-5,108,-4,90
Cc1cc(C)cc(NC(=O)CN2CCc3ccccc3C2)c1,-0.6,i,0.98,7,102,-21,80
CCC(=O)Nc1cnc(NC(=O)c2cccc(F)c2)cc1C,0.1,i,0.77,-17,103,11,111
CCOC(=O)c1c[nH]n2c(=O)cc(C)nc12,nt,i,0.95,nt,112,nt,nt
Cc1cc(-c2n[nH]c(=S)n2-c2ccc(F)cc2)nn1C,nt,i,0.86,-5,98,6,136
C#CCn1c(=NC(=O)c2cccs2)sc2cccc(OCC)c21,-1.8,i,0.8,-8,114,nt,nt
O=C(NC1(C(F)(F)F)N=C2SCCN2C1=O)C1CCCCC1 (configuration not stated),-0.7,i,0.97,3,107,-3,105

# A second format for some results above.
Compound: Cc1cc(-c2n[nH]c(=S)n2-c2ccc(F)cc2)nn1C
  GALR2 agonist: nt	HSV replic up: i	HSV replic up primary fold: 0.86	PKD1 kinase inh: -5	RGS16-Gao: 98	Insulin prom inh: 6	Insulin prom inh cell count: 136
Compound: COc1ccc(/C=C(/NC(=O)c2ccco2)C(=O)N2CCc3ccccc32)cc1OC
  GALR2 agonist: nt	HSV replic up: i	HSV replic up primary fold: 1	PKD1 kinase inh: nt	RGS16-Gao: 96	Insulin prom inh: nt	Insulin prom inh cell count: nt
Compound: O=C(CN1CCC(NC(=O)c2ccccc2)CC1)NCc1ccccc1F
  GALR2 agonist: -1.2	HSV replic up: i	HSV replic up primary fold: 0.54	PKD1 kinase inh: 1	RGS16-Gao: 98	Insulin prom inh: 18	Insulin prom inh cell count: 46
Compound: CCOc1cccc(-c2nn3c(-c4cc(C)[nH]n4)nnc3s2)c1
  GALR2 agonist: -0.1	HSV replic up: i	HSV replic up primary fold: 0.85	PKD1 kinase inh: -15	RGS16-Gao: 102	Insulin prom inh: nt	Insulin prom inh cell count: nt

# (listing goes on)
SMILES,GALR2 agonist,HSV replic up,HSV replic up primary fold,PKD1 kinase inh,RGS16-Gao,Insulin prom inh,Insulin prom inh cell count
CCOc1ccc(NC2c3ccccc3C(=O)N2c2ccc(Cl)cn2)cc1 (configuration not stated),-1.0,i,0.77,-3,104,nt,nt
COc1ccc(S(=O)(=O)NCC(c2cccnc2)N2CCN(c3ccccc3)CC2)cc1C (configuration not stated),-1.8,nt,nt,3,100,-20,96
COc1ccc(CCN2C(=O)C3CC(C)=C(C)CC3C2=O)cc1OC (configuration not stated),0.7,i,0.66,0,103,-207,125
COc1ccc(C2c3c(ncn(CCCO)c3=N)Oc3ccc4ccccc4c32)cc1 (configuration not stated),nt,i,0.63,nt,99,nt,nt
O=C(Nc1ccc(C(=O)O)cc1)/C(=C\c1cccc([N+](=O)[O-])c1)NC(=O)c1ccc(Br)o1,nt,i,1,-5,100,-20,117
CCOc1ccc(N2C(=O)CC(N3CCC(O)(c4ccc(Br)cc4)CC3)C2=O)cc1 (configuration not stated),-2.2,i,0.89,-3,95,-62,104
Cc1cccc(NC(=O)c2cccc3c2C(=O)c2ccccc2-3)c1,-1.9,nt,nt,-5,89,10,56
COc1ccc(-c2cnnn2-c2ccc(NC(=O)c3ccc(S(=O)(=O)N4CCCCC4)cc3)cc2)cc1OC,3.5,i,0.78,-3,106,4,131
Brc1ccc(-c2c[n+]3c(n2-c2ccccc2)SCC3)cc1,nt,i,1,nt,102,nt,nt
C(=C\c1nc(N2CCCCCC2)c2ccccc2n1)/c1ccccc1,-1.0,i,0.75,-5,94,nt,nt
Cc1nnc2n(c1=O)N=C(c1ccc(Cl)cc1)CS2,-2.5,i,1,-10,104,35,102
COc1ccc(CCC(=O)N(C)CC(=O)Nc2cc(C)ccc2C)cc1,nt,i,0.97,-4,104,nt,nt
O=C(O)C1CCCN(S(=O)(=O)c2cccs2)C1 (configuration not stated),-0.7,i,0.88,3,175,0,112
COc1ccc(C(=O)COC(=O)c2ccco2)cc1,-0.3,i,0.99,6,103,nt,nt
COc1ccc(C2CC(=O)c3cnc(N4CCc5ccccc54)nc3C2)cc1OC (configuration not stated),nt,i,1.1,nt,102,nt,nt
Cc1ccccc1C(=O)N1CCN=C1SCc1ccc([N+](=O)[O-])cc1,nt,i,0.87,-5,101,nt,nt
CCOC(=O)C1CCCN(CC(O)COc2ccc(OC)cc2C(C)(C)C)C1 (configuration not stated),-2.5,i,0.79,6,107,nt,nt
CCCOC(=O)C(C)Sc1n[nH]c(=O)[nH]c1=O (configuration not stated),nt,i,1.1,-1,102,nt,nt
COc1ccccc1C(=O)C1CCCN(C(=O)CCn2cnnn2)C1 (configuration not stated),nt,i,0.93,nt,90,nt,nt
O=C(NP(=O)(N1CCOCC1)N1CCOCC1)C1=C(N2CCOCC2)/C(=C\c2ccccc2)CC1,nt,i,0.88,-4,94,nt,nt
COC(=O)C1(C(F)(F)F)N=C(N(C)C)OC(N(C)C)=N1,-0.3,i,0.68,3,80,-40,98
CC(C)n1c2ccccc2c2nnc(SCC(=O)OCN3C(=O)c4ccccc4C3=O)nc21,-2.2,i,0.91,-4,98,nt,nt
NC(=O)C1CCN(C(=O)c2ccc(CS(=O)(=O)c3c(Cl)cccc3Cl)o2)CC1,-1.4,i,1.1,-7,91,nt,nt
O=C1c2ccccc2C(=O)N1CCC(c1ccccc1)c1ccco1 (configuration not stated),-1.5,i,0.81,-4,101,-4,132
FC(F)(F)c1ccccc1/C=N/N1CCN(Cc2ccccc2)CC1,1.6,i,0.97,-15,96,-36,100
CC(=O)NC1=NN(C(C)=O)C(c2cccc([N+](=O)[O-])c2)S1 (configuration not stated),-0.6,i,0.93,-3,84,-100,64
Cc1ccc(O)c(N=CC2=C(O)c3ccccc3C2=O)c1,-1.6,i,1,-7,94,16,123
CC1CCCC(C)N1C(=O)CSc1nc(N)c(-c2ccccc2)c(=O)[nH]1 (configuration not stated),-1.3,i,0.74,0,108,-28,47
CCn1c(=O)cc(OCC(=O)NCCCN2CCN(c3cccc(Cl)c3)CC2)c2ccccc21,0.0,i,0.69,-17,102,nt,nt
CCCCNC(=O)C1=C(N)C(C(=O)Nc2ccc(C)c(S(=O)(=O)N3CCCCC3)c2)SC1=Nc1ccc(C)cc1C (configuration not stated),-2.0,nt,nt,-2,99,17,97
CC1=C(C(=O)OCC2CCCO2)C(c2ccccc2)C2=C(CC(C)(C)CC2=O)N1 (configuration not stated),nt,i,1,-3,95,-23,118
O=[N+]([O-])c1c(NCCO)cc(Sc2nc3ccccc3s2)c2nonc12,3.5,i,0.73,2,53,-32,110
CNC(=O)Nc1cc(C)nn1C,nt,i,0.96,-2,95,nt,nt
Cc1ccccc1CSCCC(=O)NCCc1ccccc1,nt,i,0.98,0,93,5,82
Cc1ccc(/C(N)=N/OC(=O)/C=C/c2ccccc2)cc1,-0.9,i,0.89,-1,101,-54,53
COCCNC(=O)CSc1ccc(C)cc1,-0.2,i,1.1,1,101,nt,nt

# 3 entries already listed, arranged by the value under HSV replic up primary fold, lowest first:
SMILES	GALR2 agonist	HSV replic up	HSV replic up primary fold	PKD1 kinase inh	RGS16-Gao
CC1CCCC(C)N1C(=O)CSc1nc(N)c(-c2ccccc2)c(=O)[nH]1 (configuration not stated)	-1.3	i	0.74	0	108
CC(=O)NC1=NN(C(C)=O)C(c2cccc([N+](=O)[O-])c2)S1 (configuration not stated)	-0.6	i	0.93	-3	84
Cc1ccccc1CSCCC(=O)NCCc1ccccc1	nt	i	0.98	0	93

# Continued:
SMILES,GALR2 agonist,HSV replic up,HSV replic up primary fold,PKD1 kinase inh,RGS16-Gao,Insulin prom inh,Insulin prom inh cell count
CCCNC(=O)Cc1ccsc1,-4.2,i,0.86,2,101,-55,161
CCNC(=O)n1nccc1C(C)Oc1ccc(Cl)cc1 (configuration not stated),-0.8,i,0.91,-2,96,-14,158
C=CCn1c(SCc2cc(C(=O)OC)c(C)o2)nnc1-c1ccncc1,-2.5,i,1,-10,104,nt,nt
N#C/C(=C/c1ccc(-c2cc(C(=O)O)cc(C(=O)O)c2)o1)c1nc2ccccc2s1,nt,?,nt,6,111,6,111
Cn1c(=O)c2c(nc(CN3CCN(c4ccccc4)CC3)n2CCCc2ccccc2)n(C)c1=O,-0.2,i,0.97,-15,nt,19,150
CCOc1cc(C(=O)Nc2ccc(S(=O)(=O)Nc3cc(C)on3)cc2)cc(OCC)c1OCC,-0.9,nt,nt,3,102,47,103
Nc1cccc(-c2nnc3n2CCCCC3)c1,nt,i,1.2,-7,89,68,77
Cc1cc2oc(C(=O)Nc3ccc(S(=O)(=O)Nc4nccs4)cc3)cc(=O)c2cc1Cl,-1.8,i,0.74,-7,83,nt,nt
CCn1c(SCc2nc3cc(OC)c(OC)cc3c(=O)[nH]2)nnc1-c1ccncc1,-1.9,i,0.79,-1,96,16,112

# Compound activity (PubChem)

# The order is random; overall some 1.3% were active at least once.
